Yeast UUG start: yeast start codon fidelity modulation; S. cerevisiae UUG-firefly luciferase reporter, luminescence/redox ratio; activity score, % at 18.7 µM; 0.13% of 350,000 active;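 active = replicate mean at a twofold rise or more, about +100% in these data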;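 also: firefly luciferase made from a UUG start codon reports start codon fidelity; reporter light over untreated wells divided by growth signal over untreated wells; some hits fall short of that in this replicate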
CSC inhib: blocks cancer stem cells. inhibition, % at 7.5 µM. 1.1% of 300,000 active. AID 2717. cancer stem cell-like cells viability, luminescence;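 active = mean at 75% or more and at least half the replicates too; tested in HMLE shEcad cells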;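 also: 0% = median of negative and 100% = median of positive control wells; the first replicate is given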
eIF4H FP inh: inhibitors of RNA binding by human eIF4H; Q15056; 0.94% of 290,000 active; eIF4H fluorescence polarization binding assay; AID 2012; inhibition, % at 35 µM;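 active = 50% or more with normal probe brightness, or confirmed in later tests; about a fifth of its hits are not listed in these tables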;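 also: calls also rest on retests at 20 µM and on dose response follow-up; 0% = protein and probe with vehicle and 100% = probe without protein; strong numbers were not always called active; many hits fall short of the cut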
PABP FP inh: PABP-poly(A) binding inhibition. P11940. PABP-poly(A) RNA binding, fluorescence polarization. inhibition, % at 35 µM. 1% of 290,000 active. AID 2014;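 active = 50% or more with normal probe brightness, or confirmed in later tests; about a fifth of its hits are not listed in these tables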;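 also: calls also rest on retests at 20 µM and on dose response follow-up; controls were probe without protein and protein plus probe with vehicle; some compounds called inactive have numbers as strong as hits; many hits fall short of the cut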
Env fusion inh: HIV envelope-mediated fusion inhibition | HeLa-JRFL Env/CEM21 cell fusion, luciferase | inhibition, % at 12.3 µM | 1.1% of 360,000 active;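 active = mean replicate inhibition score of at least 50 and every replicate individually at or above 50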;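 also: 0% = plate neutral controls and 100% = maraviroc near 300 nM; one replicate is shown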
Rce1 inhib: yeast Ras-converting enzyme inhibition; Q03530; yeast membranes, quenched prenylated peptide cleavage fluorescence; calls only; 0.27% of 290,000 active; AID 2563;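 active = fall in fluorescence gain of 50% or more versus controls, with final raw signal at or below 3038400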;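 also: plate controls were neutral control wells for no effect and wells lacking membranes for full effect; tested at 10 µM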
Target sequence (Q03530 whole entry, looked up): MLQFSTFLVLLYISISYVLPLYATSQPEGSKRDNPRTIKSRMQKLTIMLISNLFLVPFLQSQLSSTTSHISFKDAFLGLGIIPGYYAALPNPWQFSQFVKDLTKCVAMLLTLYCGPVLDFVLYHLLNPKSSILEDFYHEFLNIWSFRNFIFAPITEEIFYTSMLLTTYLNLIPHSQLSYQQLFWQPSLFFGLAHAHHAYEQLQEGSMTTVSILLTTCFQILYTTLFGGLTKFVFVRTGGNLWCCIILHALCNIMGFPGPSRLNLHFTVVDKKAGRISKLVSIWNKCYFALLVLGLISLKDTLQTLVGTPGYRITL
MT1-MMP act inh: inhibitors of human MT1-MMP activation | P50281 | HT1080 RFP-PRO-GFP cells, GFP/RFP ratio fluorescence, overnight; percent of plate control window, DMSO zero | GFP/RFP ratio change, % at 20 µM | 0.061% of 360,000 active | AID 651647;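 active = GFP/RFP ratio change of at least 30% with cell ATP level not reduced by more than half and red fluorescence within 50% of control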; also: strong numbers were not always called active
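Assay system: HT1080 RFP-PRO-GFP cells | Dosing: 20 µM single dose, 1% DMSO | Incubation: Cells overnight before dosing, compound overnight, 37 °C, 5% CO2 | Evaluation: GFP/RFP fluorescence ratio | Control set: DMSO-only wells and HT1080 RFP-L50D-GFP cell wells as references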
MT1-MMP act inh RFP: second read-out of MT1-MMP act inh, no call of its own (marks repeat the call); RFP signal change, %; measured here: RFP expression control read;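 0 = vehicle wells; hits needed this value within 50% of zero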
An asterisk follows results filed as active; i = inactive; x = not tested or not shown; + = active, no number.

SMILES	Yeast UUG start	CSC inhib	eIF4H FP inh	PABP FP inh	Env fusion inh	Rce1 inhib	MT1-MMP act inh	MT1-MMP act inh RFP
Cn1nc(C(=O)NNC(=O)Cc2ccc(S(=O)(=O)N3CCOCC3)s2)c2ccccc2c1=O	-6	x	x	x	-11	x	1	2
CC(=O)Nc1ccc2nc(SCC(=O)NCCOc3ccccc3)sc2c1	x	5	3	-7	11	i	5	1
O=C(O)C1(NS(=O)(=O)c2ccc(F)c(Cl)c2)CCCCC1	-4	-9	-4	3	16	i	4	7
Cc1ccc(N/N=C/c2c(O)cc(C)oc2=O)cc1	-16	64	7	3	x	i	-2	5
COc1ccc2cc3cc(C(=O)NC4CC4)sc3nc2c1	-15	4	9	2	-26	i	5	6
CCc1ccc(CN2CCCC(C(=O)Nc3ccc(-c4cscn4)cc3)C2)o1 (stereo not given)	9	7	0	7	-13	i	1	2
COc1ccc(-c2cc(-c3ccccc3)c(C#N)c(S(C)=O)n2)cc1 (stereo not given)	-11	24	10	3	-84	i	14	7
CC1CCCCN1C(=O)CCn1c(=O)oc2ccccc21 (stereo not given)	-11	-3	9	-3	-8	i	-6	1
COc1cccc(N2CCN(C(=O)c3ccc(CS(=O)c4ccccc4Cl)o3)CC2)c1 (stereo not given)	2	52	-4	6	-129	i	10	-7
CN1CCN(C(=O)c2ccccc2NC(=O)Cc2ccccc2)CC1	-1	1	-12	22	x	i	5	9
COc1ccc2cc(S(=O)(=O)N3CCCC(C)C3)ccc2c1 (stereo not given)	-7	x	-13	7	3	i	-2	-6
CN(C)C(C)(C)C#CCCCCC#CC(C)(C)N(C)C	-19	-3	40	-8	x	x	-3	0

A few values from the entries so far.
For MT1-MMP act inh RFP, CCc1ccc(CN2CCCC(C(=O)Nc3ccc(-c4cscn4)cc3)C2)o1 (stereo not given) has the entry 2
For MT1-MMP act inh, COc1cccc(N2CCN(C(=O)c3ccc(CS(=O)c4ccccc4Cl)o3)CC2)c1 (stereo not given) has the entry 10

New compounds follow.
SMILES	Yeast UUG start	CSC inhib	eIF4H FP inh	PABP FP inh	Env fusion inh	Rce1 inhib	MT1-MMP act inh	MT1-MMP act inh RFP
C=CCc1cccc(/C=N/NC(=O)COc2ccc(-n3cnnn3)cc2)c1O	-18	-9	6	0	0	+	0	0
CC(C(=O)NCc1ccco1)n1cc([N+](=O)[O-])cn1 (stereo not given)	x	5	-8	1	-13	i	3	-1
O=C(/C=C/c1ccccc1Cl)NCc1cccs1	x	-8	1	6	-84	i	1	2
CCc1ccc(NC(=O)C(=O)NCCN2CCN(Cc3ccc([N+](=O)[O-])cc3)CC2)cc1	x	-8	1	-9	28	i	2	-14
CC(C)(C)N(NC(=O)Nc1ccc(F)cc1)C(=O)c1ccccc1	x	x	-3	-1	8	i	2	-2
COCCCN1C(=O)c2ccc(C(=O)Nc3ccccc3Cl)cc2C1=O	-5	-6	0	-5	-42	i	-2	0
CCOc1ccc(NC(=S)NC(C)CCc2ccccc2)cc1 (stereo not given)	x	-11	-1	0	-6	i	2	-1
COc1cc(CN2CCSCC2)c([N+](=O)[O-])cc1OC	-8	-22	9	-6	0	i	-6	5
O=S(=O)(Nc1ccc2c(c1)OCO2)c1cccs1	-16	-1	-1	8	-18	x	1	3
O=C(NC(Cc1c[nH]c2ccccc12)C(=O)N/N=C/c1cccnc1)c1cccs1 (stereo not given)	-13	-4	-1	-1	12	i	-6	6
O=C(c1ccc(Cl)cc1)N1N=C(c2ccccn2)CC1(O)C(F)(F)F (stereo not given)	x	19	13	5	0	i	1	-7
CCN(CC)C(=O)Oc1ccnc2cc(Cl)ccc12	-25	-3	8	22	5	i	4	-5
COc1cccc(-c2nn(-c3ccccc3)cc2C(=O)OCC(=O)Nc2ncc(Cl)cc2Cl)c1	-6	-5	17	1	-5	i	-16	-6
O=S(=O)(c1ccc(NCCOc2ccccc2)nc1)N1CCCC1	-6	x	x	x	6	x	-4	1
NS(=O)(=O)c1ccc(CCNC(=O)COC(=O)C2CCN(c3ccc(C(F)(F)F)cn3)CC2)cc1	x	-3	x	x	3	i	1	2
COc1ccc(NC(=O)CCn2cccc2)c(OC)c1	x	-12	-1	-45	-9	i	0	0
COc1ccc(CC(=O)Nc2ccccc2C(F)(F)F)cc1S(=O)(=O)N1CCOCC1	-33	x	x	x	x	x	6	7
CC(=O)C1=C(O)C(=O)N(CCc2c[nH]c3ccccc23)C1c1ccco1 (stereo not given)	-8	-2	12	17	4	x	-7	1
O=P(NC1CCCCC1)(c1ccccc1)c1ccccc1	-7	x	x	x	-7	x	-3	-4
O=C(COc1ccc(F)cc1Cl)NC1CCCCCC1	-14	-14	x	x	-245	x	-1	-23
COc1ccc(S(=O)(=O)N2CCCCCC2)cc1C(=O)OCc1cccc(OC)c1OC	5	6	x	x	1	i	-2	-9
CC(C)(C)OC(=O)C[C@@H]1C/C=C\C[C@@H](CC(=O)N(CCO)Cc2ccccc2)C(=O)N[C@@H](c2ccccc2)COC1=O	20	x	x	x	16	x	12	3
COc1ccccc1-c1nc(C#N)c(N2CCN(c3ccccc3)CC2)o1	4	4	-2	-4	x	i	6	2
c1cnc2ccc(C(c3nnnn3C3CCCC3)N3CCSCC3)cc2c1 (stereo not given)	-4	-7	2	-11	x	i	2	1

Pulled by structure from the list above:
SMILES	Yeast UUG start	CSC inhib	eIF4H FP inh	PABP FP inh	Env fusion inh	Rce1 inhib	MT1-MMP act inh	MT1-MMP act inh RFP
O=C(c1ccc(Cl)cc1)N1N=C(c2ccccn2)CC1(O)C(F)(F)F (stereo not given)	x	19	13	5	0	i	1	-7
COc1ccc(-c2cc(-c3ccccc3)c(C#N)c(S(C)=O)n2)cc1 (stereo not given)	-11	24	10	3	-84	i	14	7

The results go on:
SMILES	Yeast UUG start	CSC inhib	eIF4H FP inh	PABP FP inh	Env fusion inh	Rce1 inhib	MT1-MMP act inh	MT1-MMP act inh RFP
CCOCCCNC(=S)Nc1ccc2nc3n(c(=O)c2c1)CCCCC3	x	-7	7	3	-14	i	-1	0
COc1cc(/C=N/NC(=O)CCn2c3ccccc3c3ccccc32)cc(OC)c1OC	3	-13	-13	0	-2	i	-1	-11
COc1ccc(NC(=S)NCCc2ccccc2)c(C)c1	-34	-4	6	-5	-9	i	0	-1
CCOC(=O)c1[nH]n(-c2ccc(Cl)cc2)c(=O)c1C	0	-27	-7	-5	13	i	-3	-1
COc1ccc(CN(C(=O)c2oc3ccc(F)cc3c2C)C2CCS(=O)(=O)C2)cc1 (stereo not given)	-3	-2	-5	0	21	i	-1	-5
O=C1NCCN(Cc2c(F)cccc2Cl)C1CC(=O)N1CCCO1 (stereo not given)	-3	-9	1	0	-1	i	-3	1
OC(CNCCNc1ncccc1C(F)(F)F)COc1ccc(F)cc1 (stereo not given)	x	-4	-1	-10	10	i	-2	-4
O=C(C[C@@H]1C/C=C\C[C@@H](Cc2ccc(F)cc2)C(=O)OC[C@@H](Cc2c[nH]c3ccccc23)NC1=O)NCCO	-4	-11	x	x	-8	x	2	2
Cc1cc2cc(C(c3nnnn3C3CCCC3)N(Cc3cccnc3)Cc3ccco3)c(=O)[nH]c2cc1C (stereo not given)	-6	-4	20	12	24	i	-4	-2
COC(=O)[C@H]1C[C@@H]1[C@H](NS(=O)(=O)c1ccccc1)c1ccccc1	-9	-9	-1	-13	1	i	1	1
O=C(CP(=O)(CO)CO)c1ccc(Cl)cc1	-15	-9	6	2	x	i	6	0
COc1ccc(N2CCN(C(=O)Cc3csc(NC(=O)Nc4ccccc4OC)n3)CC2)cc1	-5	x	x	x	7	i	9	-10
CC1=C(C(=O)OC2CCCCC2)C(c2cccnc2)n2ncnc2N1 (stereo not given)	-14	-12	-3	40	3	i	1	-2
CCC(C(=O)O)P(=O)(c1ccc(Cl)cc1)c1ccc(Cl)cc1 (stereo not given)	x	-5	7	11	14	i	-4	-1
COc1ccc(C)cc1NC(=O)CN(c1ccc(C)cc1)S(C)(=O)=O	x	-14	0	3	22	i	-5	-3
CCC(C)[C@H]1COCCS(=O)(=O)N1Cc1ccccc1F (stereo not given in full)	-18	10	-1	4	-39	i	-2	1
CC12COC3(C(=O)N4CCN(c5ccccn5)CC4)CC1CCC32C (stereo not given)	-7	-9	-9	-8	24	i	-2	-4
Cc1ncc(CO)c(/C=N/NC(=O)c2ccc(O)cc2)c1O	-26	4	15	-10	4	i	2	6
COc1ccccc1CCCNC(=O)C1CCC(=O)N(CCc2ccc(Cl)cc2)C1 (stereo not given)	-10	-11	1	3	16	i	1	-6
CCOC1=C2[C@H]([C@H]3C(=O)N(c4ccccc4)C(=O)[C@H]3C1)[C@@H](c1ccccc1)N(S(=O)(=O)c1ccc(C)cc1)[C@H]2c1ccccc1	-4	x	x	x	-109	x	6	1
COc1cc(/C=C2/N=C(c3ccccc3)OC2=O)c(F)cc1OCc1ccccc1	2	-10	x	x	27	i	5	2
O=C(c1cc(C2CCCCN2S(=O)(=O)c2ccccc2)on1)N1CCOCC1 (stereo not given)	6	x	x	x	1	x	-1	0
COC(=O)[C@H]1[C@H]2C[C@@H]3c4[nH]c5cc(OC)ccc5c4CCN3C[C@H]2C[C@@H](OC(=O)/C=C/c2cc(OC)c(OC)c(OC)c2)[C@@H]1OC	5	4	x	x	-167	x	-11	3
CC(C)CN(CCNC(=O)CN1N=C(c2ccc(Cl)cc2)CCC1=O)CC(C)C	-3	-9	-6	10	16	i	0	0
Cc1sc2nc(SCC(=O)NCCOCCO)n(C)c(=O)c2c1C	3	x	-13	2	-17	i	0	-5
CCN(Cc1cc(=O)[nH]c2ccccc12)C(=O)C(C)C	-13	-4	3	6	-2	i	2	2
CCOc1ccc(CCNC(=O)c2cccc(C#N)c2)cc1OCC	x	x	0	-4	6	i	2	-2
CN(C)c1ccc(NC(=O)CN2C3CCCC2CC(NC(=O)c2ccccc2)C3)cc1 (stereo not given)	-20	-4	2	-5	13	i	7	-9
COC(=O)CCCC[C@H]1SC[C@H]2NC(=O)N[C@]21O	x	-3	14	11	x	i	x	x
Cc1ccc(C(=O)Nc2cccnc2)cc1[N+](=O)[O-]	-12	-9	2	-7	5	x	4	2
COc1ccccc1N1CCN(C2CCN(C(=O)c3cccc(F)c3)CC2)CC1	x	-3	2	5	-5	i	3	3
COc1ccc(NS(=O)(=O)c2cccc(C(=O)O)c2)cc1S(=O)(=O)N1CCCCC1	40	-19	x	x	-1	x	6	0
CCSc1nnc(NC(=O)NCC(F)(F)F)s1	-7	x	-3	-3	x	i	-2	-2
Nc1nc(SCc2ccc(F)cc2)ns1	x	-10	3	-3	-5	i	2	3
Cc1cccc(C(=O)NC(=S)N2CCN(c3ccc([N+](=O)[O-])cc3)CC2)c1	x	6	20	-12	-2	i	11	1
Cc1ccc(-c2nnn(CC(=O)NCC3COCCO3)n2)o1 (stereo not given)	-6	-8	6	-2	-48	i	-11	5

Record cards, as listed above. Screens in order: Yeast UUG start, CSC inhib, eIF4H FP inh, PABP FP inh, Env fusion inh, Rce1 inhib, MT1-MMP act inh, MT1-MMP act inh RFP
Shown for Cc1cccc(C(=O)NC(=S)N2CCN(c3ccc([N+](=O)[O-])cc3)CC2)c1 = x, 6, 20, -12, -2, i, 11, 1
Shown for Cc1ccc(-c2nnn(CC(=O)NCC3COCCO3)n2)o1 (stereo not given) = -6, -8, 6, -2, -48, i, -11, 5

More structures
SMILES	Yeast UUG start	CSC inhib	eIF4H FP inh	PABP FP inh	Env fusion inh	Rce1 inhib	MT1-MMP act inh	MT1-MMP act inh RFP
Cc1cc(C)c2ccc(C)[n+]([O-])c2c1O	-15	-10	2	-2	-73	i	3	8
COc1ccc(N2CCN(C(=O)C(NC(=O)c3c(F)cccc3F)C(C)C)CC2)cc1 (stereo not given)	-12	12	-21	2	16	i	3	1
CCCCCCN1C(=O)C(O)=C(C(C)=O)C1c1ccc(Cl)cc1 (stereo not given)	-9	-22	9	3	x	x	3	2
CCCn1cc(S(=O)(=O)CC(=O)N2CCc3ccccc32)c2ccccc21	10	-13	8	-2	28	i	1	3
CCCn1c(NCc2ccc(C)o2)nc2ccccc21	-11	0	-2	4	5	i	8	6
O=C(c1ccccc1)c1ccc(CN2C(=O)c3ccccc3C2=O)o1	-11	-29	8	5	x	i	11	4

Source: PubChem (several laboratories)
